# Screens deposited in PubChem by ICCB-Longwood Screening Facility, Harvard Medical School.
# GIV-Gai inh: GIV-Galpha-i interaction inhibition | percent of control (FP), % (no concentration beside the values) | hit rate 0.42% among 210,000 | P08753 | AID 1224905 | Galpha-i3/FITC-GIV peptide fluorescence polarization, 90 min; active compounds read low; scaled: aluminum fluoride 0%, vehicle 100%;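 active means replicate mean at 85% of control or lower, very high polarization wells dropped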;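 further: wells of about 15 µL received 100 nL stock; the first replicate is given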
# Target sequence (P08753 whole entry, looked up): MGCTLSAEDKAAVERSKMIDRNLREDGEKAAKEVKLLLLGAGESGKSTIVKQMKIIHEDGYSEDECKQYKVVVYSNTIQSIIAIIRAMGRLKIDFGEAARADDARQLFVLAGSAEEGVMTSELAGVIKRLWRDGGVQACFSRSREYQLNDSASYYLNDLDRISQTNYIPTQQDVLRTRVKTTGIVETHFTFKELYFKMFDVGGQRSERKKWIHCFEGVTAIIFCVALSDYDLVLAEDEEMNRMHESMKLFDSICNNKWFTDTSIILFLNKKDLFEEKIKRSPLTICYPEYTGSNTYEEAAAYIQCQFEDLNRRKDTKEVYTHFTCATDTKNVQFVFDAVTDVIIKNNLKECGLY
# HCMV NEC inh: disrupts HCMV UL50-UL53 complex binding. HTRF UL50-UL53 interaction, normalized percent inhibition. inhibition, % (test concentration not listed). hit rate 0.15% among 190,000. AID 1918969;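 active means both replicates at 50% or more, plus weaker picks with an unusually low signal ratio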;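 further: stock transfer was 100 nL into about 20 µL; 0% = negative control wells and 100% = wells with untagged competitor protein; inactives centre near -12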
# Sa growth inh: blocks Staphylococcus aureus growth. AID 720641. relative growth, % (test concentration not listed). S. aureus RN4220 growth, OD600, 20 h, 42 °C; active compounds read low. hit rate 0.53% among 170,000;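 active means growth at 42 °C up to 50% and 20 or more points under that at 30 °C, or under 10% at both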;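 further: 300 nL library stock went into each well; scaled to the means of positive and negative controls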
# Sa growth inh second temp: recorded beside Sa growth inh, whose call it bears; relative growth, %; measured here: growth at 30 °C;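 optical density after 20 h as mean of two plates; 100% = untreated growth and lower means inhibition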
# * marks the source's active call; other numbers are inactive results; . = not tested or not shown; & = joins results of further samples.
SMILES,GIV-Gai inh,HCMV NEC inh,Sa growth inh,Sa growth inh second temp
Cc1[nH]ncc1CNC(=O)c1[nH]nc2c1CCc1ccccc1-2,99,-11,94,79
O=C(Cn1cc(C(F)(F)F)ccc1=O)c1ccc[nH]1,.,9,105,102
Cc1nn(Cc2cccc(Cl)c2)c(=O)c2noc(C)c12,104,-34,.,.
CCOC(=O)C1=C(CN2CCN(c3ccccc3F)CC2)NC(=O)NC1c1ccc(Cl)cc1 (stereo not given),103,-19,112,90
CCOc1cc(/C=C2/SC(N)=NC2=O)ccc1OCc1ccc([N+](=O)[O-])cc1,102,-21,.,.
CN(C)S(=O)(=O)c1ccc2c(c1)nnn2CCCC(=O)N1CCN(c2cccc(Cl)c2)CC1,110,-11,.,.
O=C(Cn1cc(/C=C2\NC(=O)NC2=O)c2ccccc21)Nc1ccccc1,111,7,109,79
COc1ccc(-c2nn3c(N4CCN(Cc5ccccc5)CC4)cc(C)nc3c2C)cc1OC,104,-25,.,.
C=C1C2(C(=O)Nc3ccc(C(=O)OC)cc3)CCC(C2)C1(C)C (stereo not given),104,-4,116,100
CCCSCC(=O)Nc1ccc(C)cc1C,107,-3,88,104
COC(=O)c1c(NC(=O)C2SC(=NC3CCCCC3)C(C(N)=O)=C2N)sc2c1CCCC2 (stereo not given),.,-30,82,91
COc1ccc(C2CCCCCN2C(=O)Cn2c(C)csc2=O)cc1 (stereo not given),.,-18,90,93
Cc1ccc(C2C3=C(CC(C)(C)CC3=O)Nc3n[nH]c(C)c32)cc1 (stereo not given),.,-39,112,84
CCOC(=O)CNC(=O)CSc1cn(CC(=O)N2CCCCCC2)c2ccccc12,106,.,130,84
O=C(CN1CCC(NC(=O)c2ccccc2)CC1)Nc1ccccc1,106,-35,90,85
Cc1ccc(-c2nn(-c3cccc(F)c3)c3c2cnc2cc(F)c(F)cc23)cc1,97,.,80,88
Cc1ccc(CCNC(=O)c2cc3sccc3n2Cc2ccc(C)cc2)cc1,104,-34,114,90
CC(NC(=O)COc1ccc(Cl)cc1)C(=O)O (stereo not given),105,-15,102,78
COc1cc(-c2nnc(SCCOc3cc(C)cc(C)c3)o2)cc(OC)c1OC,102,17,105,93
Cc1cc(Nc2ccc(Cl)cc2C)nc(-n2nc(C)cc2C)n1,104&102,.,18,23
COc1ccc2nc(SCC(=O)O)[nH]c2c1,105&107,7&6,89,106
CCNc1nc(NC(C)CC)nc(ON=C(C)C)n1 (stereo not given),96,-16,86,94
Cc1cc(=O)n2[nH]c(CN(C(=O)CC(C)C)c3ccc(F)cc3)nc2n1,101,4,.,.
CCOc1ccc(-c2c(C)nn3c(C)c(C(=O)NCC(C)c4ccccc4)cnc23)cc1OCC (stereo not given),110,.,88,94
O=C(O)C1CCN1C1CCCCC1 (stereo not given),103,-13,121,98

# Some of these compounds in order of their number in Sa growth inh, low to high:
SMILES	Sa growth inh
CCOc1ccc(-c2c(C)nn3c(C)c(C(=O)NCC(C)c4ccccc4)cnc23)cc1OCC (stereo not given)	88
COc1ccc(C2CCCCCN2C(=O)Cn2c(C)csc2=O)cc1 (stereo not given)	90
Cc1ccc(C2C3=C(CC(C)(C)CC3=O)Nc3n[nH]c(C)c32)cc1 (stereo not given)	112

# Further structures follow.
SMILES,GIV-Gai inh,HCMV NEC inh,Sa growth inh,Sa growth inh second temp
CC(C(N)=O)n1cncn1 (stereo not given),100,13,.,.
COc1ccc(NC(=O)C2C3C=CC(O3)C2C(=O)NCc2cccnc2)cc1 (stereo not given),105,-17,118,87
CS(=O)(=O)N1CCC(C(=O)NC2CCCCC2)CC1,105,-4,100,83
COC(=O)c1nn(-c2ccc3c(c2)CCN3C(C)=O)cc1O,.,-19,93,93
O=C1CCCc2cc(S(=O)(=O)N3CCC(C(=O)NCc4ccc(Cl)cc4)CC3)ccc2N1,110,3,.,.
CC(C)c1cc(NC(=O)COC(=O)c2ccc3[nH]c4c(c3c2)CCCC4)on1,.,-4,85,99
Cc1ccc(C)c(N2CCN(CCCNC(=O)c3ccc4nc(N5CCCCC5)sc4c3)CC2)c1,96,-22,100,87
COc1ccc(Cl)cc1C1CC(=O)Nc2cc3c(cc21)OCCO3 (stereo not given),104,-6,121,97
CC(Sc1ncnc2c1oc1ccccc12)c1ccccc1 (stereo not given),101,-10,75,63
Cn1c(=O)c(=O)[nH]c2cnccc21,97,-26,90,81
O=C(O)c1ccc(N2Cc3ccc(Br)cc3C2)cc1,.,-9,85,85
CC1CCN(S(=O)(=O)c2ccc3c(c2)oc(=O)n3CC(=O)N2CCC(N3CCCCC3)CC2)CC1,105,-35,.,.
COc1ccc(CN(C)C(=O)c2cccc(S(=O)(=O)N(C)C)c2)c(OC)c1,.,10,86,91
O=c1cc(O)c2c(=O)n(-c3ccccc3)c3ccccc3c2o1,99,-2,105,90
Cc1noc2ncnc(N3CCCC(C(=O)NC4CCCC4)C3)c12 (stereo not given),97,8,.,.
Cc1ccc(-c2nc(Cn3c(=O)cc(-c4ccccc4)c4c(C)nn(C)c43)c(C)o2)cc1,101,.,87,100
Cc1onc(-c2ccccc2Cl)c1C(=O)Nc1c2c(nn1-c1ccc([N+](=O)[O-])cc1)CSC2,105,-12,.,.
COc1ccc2nc(SCC(O)c3cccc(Br)c3)[nH]c2c1 (stereo not given),105,-31,104,77
Cc1nc(C(=O)O)nn1-c1ccc(Cl)cc1,.,-6,115,90
CC(=O)Oc1cc2c(C(=O)NCc3ccccn3)c(C)oc2c2ccccc12,106,-13,123,102
Cc1c(Cl)cccc1NC(=O)N1CCC(CN2CCOCC2)CC1,105,.,90,102
Cc1ccc(NC(=O)Nc2ccc3c(c2)C(=O)NC3=O)cc1,.,-8,112,97
CC(=O)Nc1ccc(C2Nc3c(C)cc(C)cc3-c3cc(C)nn32)cc1 (stereo not given),103,-4,97,103
CCOc1ccc(CCNC(=O)c2sc3ncccc3c2-n2cccc2)cc1OCC,98,.,92,80
COCCOC(=O)c1c(C)oc2ccc(OCc3ccccc3Br)cc12,109,9,.,.

# Rewritten with tabs: entries from further up
SMILES	GIV-Gai inh	HCMV NEC inh	Sa growth inh	Sa growth inh second temp
COc1ccc(CN(C)C(=O)c2cccc(S(=O)(=O)N(C)C)c2)c(OC)c1	.	10	86	91
Cc1ccc(-c2nc(Cn3c(=O)cc(-c4ccccc4)c4c(C)nn(C)c43)c(C)o2)cc1	101	.	87	100
CC(=O)Nc1ccc(C2Nc3c(C)cc(C)cc3-c3cc(C)nn32)cc1 (stereo not given)	103	-4	97	103
O=C1CCCc2cc(S(=O)(=O)N3CCC(C(=O)NCc4ccc(Cl)cc4)CC3)ccc2N1	110	3	.	.
CC1CCN(S(=O)(=O)c2ccc3c(c2)oc(=O)n3CC(=O)N2CCC(N3CCCCC3)CC2)CC1	105	-35	.	.
Cc1c(Cl)cccc1NC(=O)N1CCC(CN2CCOCC2)CC1	105	.	90	102

# (more compounds)
SMILES,GIV-Gai inh,HCMV NEC inh,Sa growth inh,Sa growth inh second temp
O=C(NCCc1cn2ccccc2n1)c1cccc(C(F)(F)F)c1,100,.,106,81
COc1ccc(Br)cc1CNC(=O)Cn1ncn2nc(-c3cccs3)cc2c1=O,98,-16,102,91
COc1ccc(CN2CCc3c(c(=O)n4ncc(C(=O)N5CCN(c6ccccc6OC)CC5)c4n3C)C2)cc1,104,.,106,87
COC(=O)c1ccc(S(=O)(=O)NCCc2ccccc2OC)n1C,110,-5,101,93
CCCCNC(=O)Nc1nnc(Cc2ccccc2)s1,.,-19,79,92
C=CCn1c(C)nnc1SC(C)C(=O)Nc1ccc(S(=O)(=O)NC(C)C)cc1 (stereo not given),.,0,104,87
CCOc1cc2sc(N3CCC(C(=O)Nc4ccc(C(C)C)cc4)CC3)nc2cc1Br,95,-15,104,91
Cc1cccc(OC(C)C(=O)Nc2ncn[nH]2)c1 (stereo not given),102,.,109,92
Cc1cc(NC(=O)CN(C)C2CCCCC2)nc2c1c(=O)oc1ccccc12,102,-1,91,90
Cc1c(CNC2CCCCCC2)c(C(=O)O)c(C)n1Cc1c(F)cccc1Cl,104,-1,109,88
COc1ccc(NC(=O)Cn2c(=O)n(Cc3nc(-c4ccccc4)no3)c(=O)c3ccccc32)cc1Cl,108,.,92,93
COC(=O)c1ccc(NC(=O)C2CC(=O)N(CCc3ccc(OC)c(OC)c3)C(=Nc3ccccc3)S2)cc1 (stereo not given),102,-14,.,.
Cc1ccc(NC(=O)CSc2nc3n[nH]c(C)c3c(=N)n2-c2ccccc2C)cc1,104,-28,85,72
O=C(OCn1nnc2ccccc2c1=O)C1=COCCO1,.,-37,92,94
COc1ccc(CNC(=O)CCCc2nnc3n4nc(C)nc4c4ccccc4n23)cc1,111,-8,.,.
CCOC(=O)c1c(-c2ccc(OC)c(OC)c2)csc1NC(=O)c1ccc(C)cc1,109,-15,112,89
COc1ccc(C2=NN(S(=O)(=O)c3ccccc3)C(c3ccccc3Cl)C2)cc1OC (stereo not given),105,-11,.,.
S=C(c1ccccc1)N1CCN(Cc2ccccc2)CC1,102,-5,117,93
COc1ccc(OC)c(C2C3=C(CCCC3=O)OC3=C2C(=O)CCC3)c1,110,-20,.,.
O=C(Cn1nc2n(c1=O)-c1ccccc1SC2)N/N=C/c1ccncc1,100,-13,100,101
O=C(O)C1CCN(CCc2ccccn2)CC1,103,-11,97,97
Nc1cccc(NC(=O)CCC(=O)O)c1,92,.,123,85
NC(=O)c1cc(Br)cc2c1OCC2,95,-11,104,86
CCOC(=O)CSc1nc(C2CC2)cc(-c2ccc(OC)cc2)c1C#N,106,9,.,.
CCOC(=O)c1ccccc1NC(=O)c1sc2ncn(CC)c(=O)c2c1C,108,-45,94,86

# Compounds listed so far with a nitro group on carbon, in the order listed:
SMILES,GIV-Gai inh,HCMV NEC inh,Sa growth inh,Sa growth inh second temp
CCOc1cc(/C=C2/SC(N)=NC2=O)ccc1OCc1ccc([N+](=O)[O-])cc1,102,-21,.,.
Cc1onc(-c2ccccc2Cl)c1C(=O)Nc1c2c(nn1-c1ccc([N+](=O)[O-])cc1)CSC2,105,-12,.,.

# (next part)
SMILES,GIV-Gai inh,HCMV NEC inh,Sa growth inh,Sa growth inh second temp
O=C(Nc1c(C(=O)c2ccc(Br)cc2)oc2ccccc12)c1ccco1,102,-15,102,94
COc1ccc(CCNC(=O)C(=O)NCC(c2cccnc2)N2CCN(c3ccccc3)CC2)cc1 (stereo not given),108,-1,74,83
CCOc1cc(/C=C2\NC(=S)NC2=O)ccc1OCc1ccc(Cl)cc1,106,-30,.,.
c1ccc(CCn2nnnc2C(c2cccnc2)N2CCc3ccccc32)cc1 (stereo not given),106,-21,104,73
CC(=O)NC(Nc1ccccc1)(C(F)(F)F)C(F)(F)F,105,-10,107,87
COC(=O)c1cnc(N2CCCN(C(=O)c3cc(C(C)(C)C)nn3C)CC2)nc1C(F)(F)F,101,-28,91,89
Cc1c(Cl)cccc1NC(=O)C1NC(=O)CC1c1ccccc1 (stereo not given),108,.,106,87
CCc1ccc(N2CC(C(=O)NCc3ccc4c(c3)OCO4)CC2=O)cc1 (stereo not given),101,.,82,85
O=c1/c(=C/c2cn(Cc3ccc(Cl)cc3Cl)c3ccccc23)sc2nc3ccccc3n12,110,-8,.,.
CC(CO)N1CCS(=O)(=O)CC1 (stereo not given),99,-18,.,.
O=C(Cn1nc(-c2ccc3c(c2)OCCO3)ccc1=O)Nc1cccc2cccnc12,102,-23,110,78
Cc1nc2ncccc2c(=O)n1-c1cccc(NC(=O)c2ccc(Cl)cc2)c1,101,-10,.,.
CC(Sc1ncn[nH]1)C(=O)Nc1ccc(Cl)cc1 (stereo not given),102,-15,108,89
O=C(O)c1cc(Sc2ccccc2)nc2ccccc12,101,.,106,91
CCOc1ccc(C2Sc3ccccc3NC3=C2C(=O)c2ccccc23)cc1 (stereo not given),100,-32,.,.
O=C(Nc1cccc(-c2noc(C3CCCC3)n2)c1)c1ccc2c(c1)OCO2,99,-26,.,.
CN=c1scc(-c2ccc(Cl)cc2)n1C,100,-13,92,89
CCOc1ccccc1NC(=O)Cn1c(=O)n(-c2ccc(F)cc2)c(=O)c2c3c(sc21)CN(C(C)=O)CC3,107,8,91,82
O=C(Cn1ncn2c(cc3sccc32)c1=O)NCCc1ccccc1,104,-19,126,91
CC(=O)SC1CC(=O)N(c2ccc(Cl)cc2)C1=O (stereo not given),104,-17,74,74
CN1CCN(Cc2c(C#N)c3ccccc3n2C)CC1,.,-2,74,89
Cn1c2ccccc2c2nn(-c3ccccc3)c(=O)cc21,.,-61,90,99
O=C(NCc1ccco1)c1ccc2c(c1)N(Cc1ccc(F)cc1)C(=O)c1ccccc1S2(=O)=O,104,4,116,97
Cn1c(=O)c2c(ncn2CC(=O)Nc2ccc(OCc3ccccc3)cc2)n(C)c1=O,100,-28,.,.
COc1ccc(C(=O)N(Cc2ccc(C(C)C)cc2)C2CCS(=O)(=O)C2)cc1 (stereo not given),98,3,116,95
Cc1cccc(N2CCN(C(=O)Cn3ncc4c([nH]c5ccccc54)c3=O)CC2C)c1 (stereo not given),102,.,126,101
Cc1c(C(=O)Nc2ccc(S(N)(=O)=O)cc2)sc2nc3n(c(=O)c12)CCCC3,103,-20,81,85
O=C(CSc1ncnc2c1nnn2Cc1ccccc1F)NCc1ccco1,108,-19,104,104
O=C(OCc1cccc(C(F)(F)F)c1)c1ccc[nH]c1=O,.,-7,120,95
COc1cccc(NC(=O)CC2OCCN(Cc3ccccc3)C2=O)c1 (stereo not given),96,-2,91,84
